NPYLR7 agonist: mosquito NPYLR7 agonism; 270,000 tested, 0.15% active; activation, % at 10 µM; HEK293T NPYLR7/Galpha15, GCaMP6s calcium fluorescence; AID 1259423; in the data active = activation above about 40%;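 also: 0% = vehicle and 100% = reference agonist at the receptor; some compounds past the cut are filed as inactive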
NPYLR7 agonist max-min: recorded beside NPYLR7 agonist, whose call it bears; activation, %; measured here: Max-Min RFU normalised activation; some inactives read as strong as hits;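 span of the calcium signal over five minutes; 0% = vehicle and 100% = native peptide agonist; compound fluorescence can raise it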
An asterisk follows results filed as active; & = joins results of further samples. An excerpt; count on the stated rates, not on these rows.

SMILES | NPYLR7 agonist | NPYLR7 agonist max-min
CC1(C)C2CC=C(C=NNC(=S)NC3CCCCC3)C1C2 (stereo not given) | 5 | 2
C=C(C)Cn1c(CN(Cc2ccccc2)Cc2ccccc2)nc2c1c(=O)n(C)c(=O)n2C | -7 | -9
CC(=O)Nc1ccc(NC(=O)c2c(C)nn(-c3ccccc3)c2C)cc1 | -3 | -1
Cc1ccc(S(=O)(=O)NCCn2nc(-c3ccc(Cl)cc3)ccc2=O)c(C)c1 | -4 | -5
COc1ccccc1OC1CN(C2CCN(C(C)=O)CC2)C1 | 5 | 4
Cc1cccc2nc(COc3ccc(Br)cc3Cl)cn12 | -3 | -3
c1ccc2c3c(cc(N4CCOCC4)c2c1)OC1(N2CCOCC2)CCCCC1O3 (stereo not given) | -2 | -5
CCC(NC(=O)c1c(C)cc(C)[nH]c1=O)c1ccc(F)cc1F (stereo not given) | 1 | 16
CC(C)C(O)(/C=C/C(O)(C(C)C)C(C)C)C(C)C | -6 | -15
COCC(=O)N1CCCC(N2CCN(c3cccc(C(F)(F)F)c3)CC2)C1 (stereo not given) | 2 | 0
O=C(Nc1ccc(Cl)cc1)c1cc(S(=O)(=O)N2CCCCC2)ccc1Cl | -22 | -26
O=C(c1cc(-c2ccc(F)cc2)nn1-c1ccccc1)N1CCN(C/C=C/c2ccccc2)CC1 | -1 | 1
O=C(COc1cccc2cccnc12)N/N=C\c1ccc(Oc2ccc([N+](=O)[O-])cc2[N+](=O)[O-])cc1 | 11 | 22
CN(C)c1nccc(NC(=O)C2CCCOC2)n1 (stereo not given) | 2 | -1
CC1CCN(c2nc(-c3ccc4c(c3)OCCCO4)cs2)CC1 | 13 | 9
CCOC(=O)c1c(-c2ccccc2Cl)csc1NC(=O)Cn1cc(C(=O)OC)cc(C#N)c1=O | 8 | 11
Cc1ccc(C)c(OCC(=O)N2CCC(c3nnc4n3CCCCC4)CC2)c1C | -5 | -9
Cc1nonc1CC(=O)N(C)Cc1nc2ccc(Cl)cc2[nH]1 | 1 | 0
CCOc1ccc(Cl)c(C(=O)N2CCc3ccc(O)cc3C2)n1 | 0 | -1
CC(=NNc1nncc2ccccc12)c1ccc(C(C)(C)C)cc1 | -4 | -5
S=c1nc(Nc2ccccc2)c2ccccc2[nH]1 | -1 | -1
NC(=O)COc1ccc(-c2nccn2-c2cccnc2)cc1Cl | 3 | 0
Cc1n[nH]c(=S)c2c1cnn2-c1ccccc1 | -6 | -7
CCC(=O)N(Cc1csc(COc2cc(C)cc(C)c2)n1)C1CC1 | 24 | 22
CSc1nccc(N2CCC(n3cc(CN4CCC(O)C4)nn3)CC2)n1 (stereo not given) | 21 | 7
COc1cccc(C(c2ccccn2)N(C)C(=O)C2CCN(CCCc3ccccc3)CC2)c1 (stereo not given) | 11 | 1
O=C(C1CCCN(C2CCN(CCc3ccccc3)CC2)C1)N1CCCNCC1 (stereo not given) | 5 | -6
CCOc1cc(CO)ccc1OCCOc1ccc(Br)cc1 | 1 | -1
O=C(NCc1ccco1)c1csc(CSc2nnc(-c3ccccc3Cl)n2-c2ccccc2F)n1 | 11 | 9
COc1cccc(-c2cc(C(=O)O)nc3cc(C(C)(C)C)nn23)c1 | -10 | -5
COc1ccc(CNC(=O)CCC2CCCN(Cc3nc(C(C)C)cs3)C2)c(OC)c1 (stereo not given) | -2 | -8
COc1cc(F)c(NS(=O)(=O)c2cccc(Cl)c2)cc1OC | -5 | -5
CCCCCCCCCC(=O)NC(CN1CCOCC1)[C@H](O)c1ccccc1 (stereo not given in full) | 2 | 29
Fc1ccccc1Oc1cc(C(F)(F)F)nc(SCc2c(F)cccc2F)n1 | 1 | 3
Cc1ccc(F)c(S(=O)(=O)NC(=O)C2(C)CCN2C(=O)Cc2ccccc2)c1 (stereo not given) | 0 | 0
Cc1ccc(S(C)(=O)=O)cc1NS(=O)(=O)c1cccc(C#N)c1 | 1 | 0
COCc1cc(C)nc(SCC(=O)O)c1C#N | 1 | -1
Clc1ccc2c(c1)C=C(CN1CCCC(N3CCOCC3)C1)CO2 (stereo not given) | 11 | 6
COCc1ccccc1CNC(=O)/C=C/C(C)(C)C | -3 | -3
CC1(C)Cc2cccc(OCCCS(=O)(=O)N3CCCC3)c2O1 | 9 | 11
CC(C)c1ccc(CN(C(=O)C2CCN(S(=O)(=O)c3ccccc3)CC2)C2CC2)cc1 | 5 | 4
Cc1cc(C)c(CN(C)Cc2nc(C)no2)c(-n2cccn2)c1 | 19 | 11
Cn1c(C2CCN(S(C)(=O)=O)CC2)nn(CC(=O)N2CCc3ccccc32)c1=O | -4 | 3
Cc1cc(C)cc(CN2CCC(CCc3ccc(C(F)(F)F)cc3)CC2)c1 | 1 | 8
Cc1ccc(C2(O)CCN(CC3CC=CCC3)CC2)nc1 (stereo not given) | 4 | 2

Arranged by count of non-hydrogen atoms (highest first): part of the list above
SMILES | NPYLR7 agonist | NPYLR7 agonist max-min
Cn1c(C2CCN(S(C)(=O)=O)CC2)nn(CC(=O)N2CCc3ccccc32)c1=O | -4 | 3
Cc1cc(C)c(CN(C)Cc2nc(C)no2)c(-n2cccn2)c1 | 19 | 11
Cc1ccc(C2(O)CCN(CC3CC=CCC3)CC2)nc1 (stereo not given) | 4 | 2

(more compounds)
SMILES | NPYLR7 agonist | NPYLR7 agonist max-min
COC[C@H]1C[C@H]2C[C@@H](OC)[C@H](N3CCN(c4ccccn4)CC3)[C@]2(O)CO1 | 3 | 11
O=C(CCCc1ccccc1)NCC1Cc2cc(-c3cncnc3)cc(Cl)c2O1 (stereo not given) | 10 | -1
Cc1ncsc1CCOC(=O)C1C2CC3CC(C2)CC1C3 (stereo not given) | 7 | 6
O=C(NCCn1ccnc1)C1CCCN(C2CCN(Cc3ccccc3)CC2)C1 (stereo not given) | 10 | 10
Cc1ccc(NC(=O)C2(C)CCN2C(=O)c2ccc(C(C)(C)C)cc2)cc1C (stereo not given) | 9 | 9
OCC1(Cc2ccccc2)CCCN(Cc2cccnc2)C1 (stereo not given) | -2 | -3
Clc1ccc(C=NN2CCN(Cc3ccccc3)CC2)cc1Cl | -5 | -9
C=CCn1c(=O)c2c(nc3n(-c4ccccc4)c(-c4ccccc4)cn23)n(C)c1=O | 7 | 11
Cc1cc(=O)n2c(-c3cccc(NS(=O)(=O)c4cccs4)c3)csc2n1 | -2 | -2
CCCC(C)c1nc(N2CCN(C(=O)/C=C/c3ccccc3)CC2)c2c(C)nn(-c3ccc(F)cc3)c2n1 (stereo not given) | 7 | 10
N#CC1(C#N)C(c2cccc(I)c2)C(C(N)=O)N2C=Cc3ccccc3C21 (stereo not given) | 11 | 4
CN(CC1CCN(CCc2ccccc2F)CC1)C(=O)Cc1ccc2c(c1)OCO2 | -2 | -4
Cc1cccc(C(=O)NC(C(=O)N2CCCC2)C2CCN(C(=O)c3ccc4c(c3)OCO4)CC2)c1 (stereo not given) | -1 | 7
O=C(Nc1cccc(C(=O)N2CCC3(C2)OCCO3)c1)c1ccco1 | 0 | -1
C=CCn1c(CNc2ccc(I)cc2)nnc1SCC(=O)NC(C)(C)C | 2 | 4

Part of the list above, with each value named.
> Cc1ncsc1CCOC(=O)C1C2CC3CC(C2)CC1C3 (stereo not given)
  NPYLR7 agonist: 7
  NPYLR7 agonist max-min: 6
> O=C(NCCn1ccnc1)C1CCCN(C2CCN(Cc3ccccc3)CC2)C1 (stereo not given)
  NPYLR7 agonist: 10
  NPYLR7 agonist max-min: 10
> Cc1ccc(NC(=O)C2(C)CCN2C(=O)c2ccc(C(C)(C)C)cc2)cc1C (stereo not given)
  NPYLR7 agonist: 9
  NPYLR7 agonist max-min: 9

The list continues.
SMILES | NPYLR7 agonist | NPYLR7 agonist max-min
COc1ccc(OCc2ccc(-c3nc(C#N)c(NC(C)c4ccccc4)o3)o2)cc1 (stereo not given) | 3 | 14
COC(=O)c1ccccc1NC(=O)Cn1c(CCC(=O)O)ccc1-c1ccccc1 | -9 | -17
CCNC(=O)CSc1nc(C)nc2sc(C)c(C)c12 | 13 | 13
CCC(CC)c1cc(CNC(=O)c2cccc(-n3cncn3)c2)on1 | 1 | -1
O=[N+]([O-])c1ccc2c(c1)CCN2Cc1c(F)c(F)c(F)c(F)c1F | 5 | 1
O=C1N(Cc2cccnc2)C[C@@H]2C[C@@H](c3ccc4c(c3)OCCO4)N3CCC[C@@]123 | 24 | 8
O[C@@H]1CN(Cc2ccc(-c3cncnc3)cc2)CC[C@H]1c1ccc(F)cc1 | 5 | 2
CCOc1ccc2nc(N3CCCN(Cc4ccc5ccccc5n4)CC3)nc(C)c2c1 | 8 | 4
O=c1c2ccccc2nnn1CSc1ccc(Cl)cc1 | 15 | 6
O=C(CSc1nc2ccccc2s1)NCCN1C(=O)SC(=Cc2ccc3c(c2)OCO3)C1=O | -4 | -9
O=C(NCCc1ccc(Cl)cc1Cl)c1ccc(S(=O)(=O)N2CCOCC2)cc1 | 17 | 17
Cc1cccc(CO[C@]2(C(=O)NCC3CC3)CC(OCc3ccc(C#N)cc3)[C@@H]3OC(C)(C)O[C@@H]3C2)c1 (stereo not given in full) | 13 | 10
CC(=O)N(C)C1CCN(CC(=O)NCCc2ccc(Cl)cc2)C1 (stereo not given) | 5 | -16
CN(C)c1ccc(Nc2nc3ccccc3n3cnnc23)cc1 | 3 | 1
CONC(=O)c1c2c(nc3ccccc13)/C(=C\c1ccco1)CC(C)C2 (stereo not given) | 26 | 22
CC(C)c1ccccc1OCc1nc(CN(CCN2CCCCC2)C(=O)c2ccco2)cs1 | 6 | 20
COCCCNC(=O)C(NC(=O)c1cccc(OC)c1)C1CCN(C(=O)Nc2cccc(Cl)c2)CC1 (stereo not given) | -1 | 1
CCOCCn1c(CN2CC(C)CC(C)C2)nc2c1c(=O)n(C)c(=O)n2C (stereo not given) | 0 | -4
O=C(Nc1nc2c(s1)CCCC2)C1Cc2cc(Cl)ccc2O1 (stereo not given) | -1 | -2
CCCCCCC(=O)NC(C)c1nnc(SCc2ccc(F)cc2)n1-c1ccc(C)cc1 (stereo not given) | -10 | -3
CCS(=O)(=O)c1ccc2oc(-c3ccccc3NC(=O)c3cccs3)nc2c1 | 30 | 27
O=C(C1CCN(S(=O)(=O)c2ccccc2)CC1)N1CCCc2ccccc21 | -4 | -6
Cc1ccc(C2(O)CCN(C(=O)Cc3c(C)nc(C)[nH]c3=O)CC2)nc1 | 0 | 8
Cc1c(C(=O)NCc2ccc3c(c2)OCO3)sc(=O)n1CCc1ccccc1 | 14 | 3
CN1CCC2(CC1)CCN(S(=O)(=O)c1ccc3[nH]c(=O)oc3c1)C2 | 6 | 7
Cc1cccc(NC(=O)CNC(=O)c2cccc(F)c2)c1 | 6 | 5
O=C(COCc1ccccc1)Nc1nnc(SCCCOc2ccccc2)s1 | -3 | 9
CCOc1ccc(-c2csc3c(=O)[nH]c(N4CCN(c5ccccn5)CC4)nc23)cc1OCC | -1 | 1
CCOC(=O)NC(CNCc1cc2c(C)nn(C)c2nc1Cl)C1CC1 (stereo not given) | 0&7 | -1&6
NC(=O)c1cc2c(ccc3ccccc32)oc1=Nc1ccc(F)cc1 | -8 | -12

In the list so far, these contain bromine.
SMILES | NPYLR7 agonist | NPYLR7 agonist max-min
Cc1cccc2nc(COc3ccc(Br)cc3Cl)cn12 | -3 | -3
CCOc1cc(CO)ccc1OCCOc1ccc(Br)cc1 | 1 | -1

(cont.)
SMILES | NPYLR7 agonist | NPYLR7 agonist max-min
CCCCN(Cc1cccn1Cc1ccc(Br)cc1)C(=O)CN(CCOC)C(=O)c1cccc(Br)c1 | -2 | 12
COC(=O)CN1C(=O)C(O)(c2c(C)[nH]c3ccccc23)c2ccccc21 (stereo not given) | 17 | 6
CC1CC(C)CN(c2nc3c(c(=O)[nH]c(=O)n3C)n2CCSc2nc3ccccc3s2)C1 (stereo not given) | 0 | 29
COc1cc(N2CCN(C(=O)C3CCC(=O)N3)CC2)nc(C)n1 (stereo not given) | 10 | 3
COC(=O)Cn1c(=O)c2c(nc3n2CCCN3c2ccc(C)c(C)c2)n(C)c1=O | 1 | -3
C=C(C)Cn1c(=O)c2c(nc3n(-c4cc(C)ccc4C)c(C)cn23)n(C)c1=O | 0 | 0
Cn1c(=O)[nH]c(=O)c2c1nc(NC1CCCC1)n2CCCc1ccccc1 | -5 | -9
Cc1ccccc1CSc1ncnc2c1nnn2-c1ccc(F)cc1 | 12 | 15
O=C(CN1CCCC(O)(CO)C1)NCc1ccccn1 (stereo not given) | -6 | -10
CC(=O)Nc1ccc(NC(=O)C2(C)CCN2CC2CCOC2)cc1 (stereo not given) | -2 | -7
Cc1ccc(C(=O)NS(=O)(=O)CCS(=O)(=O)c2ccc(F)cc2)cc1F | 1 | 2
O=C(Nc1nnc(SCCc2ccccc2)s1)C1C[C@H]1c1ccccc1 (stereo not given in full) | 6 | 25
Cc1cc(CNc2ccc[nH]c2=O)ccc1Br | -21&-3 | -24&-2
CCC(=O)N(C)c1nnc(C23CC4CC(CC(C4)C2)C3)s1 | 3 | 2
O=C(C1Cc2ccccc2CN1S(=O)(=O)c1ccc([N+](=O)[O-])cc1)N1CCCC1 (stereo not given) | -1 | -2
O=C1CCC(C(=O)N2CCOCC2)CN1Cc1cccc(C(F)(F)F)c1 (stereo not given) | -10 | -12
CC(C)(C)C(=O)Nc1nnc(C(F)F)s1 | 1 | 0
O=C1NC2(CCN(C(=O)C3CC3)CC2)Nc2ccccc21 | 16 | 20
Cn1cnc(S(=O)(=O)Nc2ccsc2)c1Cl | -5 | -6
CC1=C(C(=O)NC2CCCC2)C2(CCCCCC2)OC1=O | 8 | 9
CCn1c(C)c(P(=O)(N2CCOCC2)N2CCOCC2)c2ccccc21 | -2&3 | -9&1
CCn1nnc2c(SCC(=O)N3CCN(c4ccc(Cl)cc4)CC3)ncnc21 | 0 | 27

Exported with two lines to a compound: entries from further up
Below each SMILES: NPYLR7 agonist, NPYLR7 agonist max-min
> O=C1NC2(CCN(C(=O)C3CC3)CC2)Nc2ccccc21
 : 16, 20
> Cn1cnc(S(=O)(=O)Nc2ccsc2)c1Cl
 : -5, -6
> CC1=C(C(=O)NC2CCCC2)C2(CCCCCC2)OC1=O
 : 8, 9
> CCn1c(C)c(P(=O)(N2CCOCC2)N2CCOCC2)c2ccccc21
 : -2&3, -9&1
